Six1-Eya2 blk: qHTS Assay for Inhibitors of the Six1/Eya2 Interaction | Homeobox protein SIX1 (Homo sapiens) + Protein phosphatase EYA2 (Homo sapiens), … | AlphaScreen GST-Six1/His-Eya2 binding, biochemical; hits give low values; control for the full effect not named in the record | activity change, % (test concentration not listed) | actives 0.56% (n = 360,000); in the data active = activity change below about -65%; inconclusive = about -30% to -65%; inactive = above about -30%; further: on the % scale 0 is the no-effect control and ±100 the full control effect; compound concentration not given in the record
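GST-Six1 + His-Eya2 (5X stock: 250/500 nM); Tris pH 8.0, 300 mM NaCl, 0.05% BSA, 0.02% Tween 20; GSH donor/Ni acceptor beads; 1 h 37 °C dark; AlphaScreen readout.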
TRPML1 blocker: qHTS for Inhibitors of the Human Mucolipin Transient Receptor Potential 1 (TRPML1). Mucolipin-1 (Homo sapiens), Q9GZU1. TRPML1-inducible cells, Ca2+ dye fluorescence, FDSS; hits give low values; inhibition of EC80 agonist-evoked calcium signal. activity change, negative = inhibition, % (no concentration beside the values). actives 0.02% (n = 390,000); in the data active means activity change below about -50%; inconclusive means about -30% to -50%; inactive means above about -30%;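 further: stimulus is agonist 54-4 at its EC80 concentration; on the % scale 0 is the no-effect control and ±100 the full control effect; compound concentration not given in the record; the text of the record puts the active cut at -80%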
Target sequence (Q9GZU1 whole entry, looked up): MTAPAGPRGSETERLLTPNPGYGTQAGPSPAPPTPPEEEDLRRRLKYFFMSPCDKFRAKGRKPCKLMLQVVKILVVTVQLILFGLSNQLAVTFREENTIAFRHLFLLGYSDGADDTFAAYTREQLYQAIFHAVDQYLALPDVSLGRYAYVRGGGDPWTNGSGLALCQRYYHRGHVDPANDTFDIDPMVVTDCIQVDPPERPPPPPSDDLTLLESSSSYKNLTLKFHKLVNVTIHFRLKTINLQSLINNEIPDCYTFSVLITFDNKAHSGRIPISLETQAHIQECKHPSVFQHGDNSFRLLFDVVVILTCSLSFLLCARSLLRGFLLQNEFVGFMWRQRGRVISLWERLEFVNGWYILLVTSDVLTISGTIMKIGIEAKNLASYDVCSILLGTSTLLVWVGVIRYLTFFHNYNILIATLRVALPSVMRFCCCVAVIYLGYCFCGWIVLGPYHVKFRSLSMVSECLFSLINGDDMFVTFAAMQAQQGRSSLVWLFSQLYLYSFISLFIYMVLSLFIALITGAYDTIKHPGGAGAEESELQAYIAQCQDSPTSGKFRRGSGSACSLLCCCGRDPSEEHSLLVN
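Calcium fluorescence in TRPML1-DL cells induced overnight with Tet: a 110 s read after compound pin addition, then a 110 s antagonist read after challenge with 54-4 at 4 uM final (EC80).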
D2 PAM: Beta-Arrestin HTS for Positive Allosteric Modulators of the Human D2 Dopamine Receptor: Potentiators. D(2) dopamine receptor (Homo sapiens), P14416. potentiation, % (no concentration beside the values). actives 0.23% (n = 360,000). DiscoveRx D2 beta-arrestin cells, luminescence, 90 min; 100% = 57 uM dopamine signal; active = potentiation of 50% or more; inconclusive = 30% to 50%; inactive = 30% or less;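 further: compound concentration not given in the record; tested on top of an EC20 dose of dopamine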
Target sequence (P14416 whole entry, looked up): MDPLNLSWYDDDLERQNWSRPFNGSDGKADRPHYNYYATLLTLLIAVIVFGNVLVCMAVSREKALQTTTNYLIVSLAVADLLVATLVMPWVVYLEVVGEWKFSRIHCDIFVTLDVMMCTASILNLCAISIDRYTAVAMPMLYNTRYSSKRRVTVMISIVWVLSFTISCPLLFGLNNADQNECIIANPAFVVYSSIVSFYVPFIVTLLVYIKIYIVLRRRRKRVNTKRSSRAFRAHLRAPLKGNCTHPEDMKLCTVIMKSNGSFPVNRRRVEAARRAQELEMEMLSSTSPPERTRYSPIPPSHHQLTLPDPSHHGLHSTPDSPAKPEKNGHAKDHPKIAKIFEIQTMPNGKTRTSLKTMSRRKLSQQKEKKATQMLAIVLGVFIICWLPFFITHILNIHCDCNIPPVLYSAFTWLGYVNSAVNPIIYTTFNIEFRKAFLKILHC
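D2 cells co-treated with compound plus 50 nM dopamine (EC20) for 90 min at 37 deg C to detect potentiation. Beta-arrestin recruitment was read as enzyme-fragment luminescence after 1 h at ambient temperature. Full response was set by 57 uM dopamine.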
TRPML1 agonist: qHTS for Agonists of the Human Mucolipin Transient Receptor Potential 1 (TRPML1). TRPML1-expressing cells, Ca2+ dye fluorescence, FDSS; host cell line not named in the record; reference of the full effect not given here. activation, % (concentration not given with the values). actives 0.12% (n = 410,000); in the data active = activation above about 50%; inconclusive = about 30% to 50%; inactive = below about 30%; further: 0% is about no effect; the text of the record puts the active cut at 80%
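Cells: TRPML1-DL, 1X Tet inducer, ~16 h at 37 degrees C/5% CO2. Dye: ABD Ca8 no-wash + quencher, 45-90 min RT. Read: 10 s baseline, compound add, 110 s agonist phase; 54-4 EC80 (4uM final), 110 s antagonist phase.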
CtBP-E1A inh: qHTS Assay for Inhibitors of the CtBP/E1A Interaction. CtBP / adenovirus E1A interaction (AlphaScreen). AlphaScreen GST-E1A/His-CtBP binding, 1536-well; hits give low values; control for the full effect not named in the record. activity change, % (no concentration beside the values). actives 0.49% (n = 340,000); in the data active means activity change below about -65%; inconclusive means about -30% to -65%; inactive means above about -30%; further: on the % scale 0 is the no-effect control and ±100 the full control effect; compound concentration not given in the record
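Protein mix (5X: 125 nM each GST-E1A, His-CtBP) was incubated with pinned compound 2 h at 37 deg C in dark, in 50 mM Tris pH 8.0 buffer with 300 mM NaCl. Glutathione donor and nickel acceptor beads followed; AlphaScreen signal read after 1 h.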
TRPV1 potentiator: HTS Assay for Compounds that Act as Potentiators of the Vanilloid Receptor 1. potentiation, % at 8.33 µM. actives 0.02% (n = 320,000). TRPV1-expressing cells, Fluo-8 calcium influx, capsaicin EC20 potentiation; host cell line not named in the record; control for the full effect not named in the record. AID 540277, 2011; active means potentiation above 80%; inconclusive means 30% to 80%; inactive means below 30%; further: 0% is about no effect
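Cells expressing TRPV1 were dye-loaded with Fluo-8 and read kinetically: 10 s baseline, 3 min after compound (agonist portion), then 2 min after EC20 capsaicin (allosteric enhancer portion). Calcium-bound dye fluorescence at 480/520 nm.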
* = called active by the depositor; ? = inconclusive; . = not tested or not shown.

SMILES	Six1-Eya2 blk	TRPML1 blocker	D2 PAM	TRPML1 agonist	CtBP-E1A inh	TRPV1 potentiator
Cc1ccc(NC(=O)CN(C)C(=O)c2ccc(NS(=O)(=O)c3cccc([N+](=O)[O-])c3)cc2)cc1	0.0	8.5	-9.5	0.0	.	.
COc1ccc(C(C)(NC(C)=O)c2nc(-c3ccc(F)cc3OC)cs2)cc1 (stereo not given)	0.2	.	-7.5	-1.0	-2.7	.
CN1C(C(=O)NCc2ccco2)CC2Cn3c(nc4cc5ccccc5cc43)C21 (stereo not given)	2.6	14.8	0.8	3.3	-5.8	1.1
O=C(O)c1cc(-c2cccs2)nn1-c1cccc(Cl)c1	-8.1	-5.9	-13.4	-0.9	-5.4	-1.7
COc1ccc(CCNc2nc3ccccc3n3cnnc23)cc1OC	-0.5	6.2	-1.5	0.9	10.3	8.3
C/C(=N/NC(=O)C1CC1(c1ccccc1)c1ccccc1)c1cccs1 (stereo not given)	-6.2	1.4	-2.7	0.7	.	0.7
CC(=O)N1CCN(c2ccc(Nc3ncnc4c3oc3ccccc34)cc2)CC1	-15.3	8.2	27.1	-1.0	-8.4	-14.8
COCCn1nnnc1SCC(=O)N1CCCCC1	3.7	-9.3	-6.3	-0.6	22.7	-2.5
CCN1C[C@@H]2[C@@H]3C(=O)N(Cc4ccccc4)C(=O)[C@@H]3[C@](Cc3ccccc3)(C1=O)N2C(=O)c1ccc(Cl)cc1	2.5	7.9	-4.2	0.6	.	.
Cc1nnc(NC(=O)c2ccc(N3CCCC3=O)cc2)s1	-2.2	-4.3	9.7	1.3	2.1	-6.2
CCOC(=O)c1cnc(SCc2cccc3ccccc23)nc1N	10.2	-0.5	4.6	1.5	12.3	-5.8
C=CCn1c(-c2ccc(N)cc2)nc2ccccc21	-23.0	9.7	-4.2	-0.4	-23.2	9.3
O=C(Nc1ccc2[nH]ncc2c1)c1cccc(F)c1	-4.9	-2.9	-1.5	0.0	3.6	-3.7
COc1ccc(-c2csc(NC(=S)NC(=O)c3ccc(S(=O)(=O)N(C)C)cc3)n2)cc1OC	-2.1	-0.8	-1.3	-0.3	-5.9	6.1
CCCCN(CC)CCNC(=S)Nc1ccc2nc(N3CCN(C)CC3)cc(C)c2c1	9.7	-11.7	-5.8	0.4	-15.0	25.7
COc1ccc(C2=NOC3(CC(=O)N(c4ccc(F)cc4)C3=O)C2)c(OC)c1 (stereo not given)	-1.8	-8.0	0.1	-0.5	-5.0	4.7
CCc1cc2cc(C(=O)N3CCN(Cc4ccccc4)CC3)sc2s1	-7.4	5.2	-29.8	1.2	1.6	28.5
Cc1cc(NC(=O)/C=C/C(=O)N(CC(=O)NC2CCCC2)c2cccc3ccccc23)no1	2.9	-7.8	-16.3	-0.5	7.9	6.7
O=C(Nc1ccc2c(c1)OCO2)c1cc(C2CCCCN2C(=O)OCCF)on1 (stereo not given)	-1.9	.	-3.7	-0.7	-3.2	.
Cc1ccc(S(=O)(=O)Nc2ccc(C(=O)OCC(=O)N(CCC#N)c3ccccc3)cc2)cc1C	1.8	1.7	-5.7	0.0	10.7	2.1
Cc1cccc(C)c1NC(=O)CN(C)C(=O)C1CC1C (stereo not given)	1.0	-10.1	-0.9	-0.4	.	8.1
O=C(/C=C/[C@H]1O[C@@H](n2cnc3c(NC(=O)c4ccccc4)ncnc32)[C@H](O)[C@@H]1O)NCC(c1ccccc1)c1ccccc1	-3.1	.	16.2	-0.2	-3.6	.
COc1cc(/C=C/c2ccc3c([N+](=O)[O-])cccc3n2)ccc1OCC(=O)O	?	11.6	-8.7	-0.7	.	-8.8
Cc1nn2c(NCc3cccnc3)c3c(nc2c1-c1ccccc1)CCC3	-3.0	13.2	-3.4	3.0	-18.7	9.1

Part of the list above in order of molecular weight, high to low.
SMILES	Six1-Eya2 blk	TRPML1 blocker	D2 PAM	TRPML1 agonist	CtBP-E1A inh	TRPV1 potentiator
CCCCN(CC)CCNC(=S)Nc1ccc2nc(N3CCN(C)CC3)cc(C)c2c1	9.7	-11.7	-5.8	0.4	-15.0	25.7
O=C(Nc1ccc2c(c1)OCO2)c1cc(C2CCCCN2C(=O)OCCF)on1 (stereo not given)	-1.9	.	-3.7	-0.7	-3.2	.
COc1ccc(C2=NOC3(CC(=O)N(c4ccc(F)cc4)C3=O)C2)c(OC)c1 (stereo not given)	-1.8	-8.0	0.1	-0.5	-5.0	4.7
CCc1cc2cc(C(=O)N3CCN(Cc4ccccc4)CC3)sc2s1	-7.4	5.2	-29.8	1.2	1.6	28.5
Cc1nn2c(NCc3cccnc3)c3c(nc2c1-c1ccccc1)CCC3	-3.0	13.2	-3.4	3.0	-18.7	9.1
O=C(Nc1ccc2[nH]ncc2c1)c1cccc(F)c1	-4.9	-2.9	-1.5	0.0	3.6	-3.7

Looked up above:
TRPML1 blocker result of `Cc1nn2c(NCc3cccnc3)c3c(nc2c1-c1ccccc1)CCC3` = 13.2
CtBP-E1A inh result of `COc1ccc(C2=NOC3(CC(=O)N(c4ccc(F)cc4)C3=O)C2)c(OC)c1` (stereo not given) = -5.0

The list continues.
SMILES	Six1-Eya2 blk	TRPML1 blocker	D2 PAM	TRPML1 agonist	CtBP-E1A inh	TRPV1 potentiator
COc1cccc(-c2cccc3c2NC(=O)C3(C)Cc2ccccc2F)c1 (stereo not given)	0.5	.	-5.2	-0.7	1.3	.
COC(=O)c1c(NC(C)=O)sc2c1CCN(Cc1ccccc1)C2	-3.5	1.1	-9.0	0.0	-6.4	-30.6
Cc1nc2c(OCc3cccc(Cl)c3)cccn2c1N(C)CC1CC1	-7.9	8.4	-26.3	5.7	-6.1	.
CC(=O)c1cccc(S(=O)(=O)N2CCC(C(=O)N(C)Cc3ccc(Cl)s3)CC2)c1	-9.5	-5.6	0.8	0.5	-8.3	-3.0
Cc1cc(C)n2nc(SCC(=O)NC3CCCC(C)C3C)nc2n1 (stereo not given)	6.2	-6.0	-6.0	0.4	-14.6	3.2
CCOc1ccc(NCC(=O)N/N=C/C=C/c2ccccc2)cc1	-13.1	-6.4	-2.8	2.0	.	7.2
CC(=O)NCCc1nc2cc(NC(=O)COc3ccc(C)cc3)ccc2n1C	7.2	6.8	-4.8	-0.6	-1.4	0.8
Cc1sc2ncnc(N3CCC(C(=O)Oc4cccc(Cl)c4Cl)CC3)c2c1C	-15.0	41.4	-19.0	0.1	-1.6	5.2
CSc1ccc(C2NC(=O)CCC2[N+](=O)[O-])cc1 (stereo not given)	-0.2	-15.7	-10.0	0.6	6.4	7.8
O=C1C2CCCN2C(=O)N1CCN1CCN(CCO)CC1 (stereo not given)	3.1	-12.0	-14.9	0.8	6.2	0.2
O=C(CSc1cn(CCNC(=O)c2ccccc2F)c2ccccc12)NCC1CCCO1 (stereo not given)	-1.8	-8.0	-7.0	0.4	-6.0	-0.5
COc1cccc(C2C(C#N)=C(N)OC3=C2C(=O)CCC3)c1OC(=O)c1ccco1 (stereo not given)	5.6	-25.5	-1.0	0.3	-1.2	-4.1
Fc1ccccc1CN1CCCC(NC2CCC2)C1 (stereo not given)	4.7	-19.4	-4.3	-0.1	-20.2	2.0
COc1ccccc1/C=C(\C#N)C(=O)c1cccn1C	4.2	-20.1	-12.5	1.3	.	28.1
S=c1[nH]c2cnccc2n1Cc1ccccc1	0.0	0.3	-2.1	1.4	0.0	29.4
Cc1ccc(-n2c(SCC(=O)NCc3cccs3)nnc2-c2ccoc2C)cc1	-7.9	-4.8	-13.2	-0.9	-2.2	-17.2
Cc1ccc(CNC(=O)[C@H]2O[C@@H](n3ccc(N)nc3=O)[C@H](O)[C@@H]2O)o1	-11.1	-6.3	-3.1	-0.4	-5.1	.
Oc1ccccc1/C=N/NC1=NCCCCC1	5.1	-5.7	-5.2	0.1	0.9	-16.8
CN(CC(=O)Nc1cccc(F)c1)C(=O)c1ccccc1-n1cnnn1	6.7	18.6	6.4	5.5	-12.2	11.1
CC(=O)c1ccc(NC(=O)N[C@@H](Cc2ccccc2)C(=O)O)cc1	2.7	30.0	-15.5	-0.5	4.4	-0.4
COc1cccc2c(SCC(=O)N/N=C/c3ccc(O)c(O)c3)cc(C)nc12	-71.3*	-12.2	5.6	-0.3	-74.3*	4.3
CC(C)(C)OC(=O)N1CCC[C@H]1c1nnc(SC/C=C/c2ccccc2)o1	6.2	3.1	4.7	2.1	5.6	-8.0
COCCSc1nc2c(c(=O)[nH]c(=O)n2C)n1CCCc1ccccc1	4.7	29.2	-2.5	0.1	-10.4	-21.1
CCc1nnc(NS(=O)(=O)c2ccc(N/C=C\C(=O)c3ccc(C)cc3)cc2)s1	-16.8	-4.8	0.0	-0.7	-10.6	13.6
CCCC(=O)Nc1ccc(NC(=O)c2cccc(OC)c2)cn1	16.1	2.0	-3.1	0.5	-19.8	-7.0
Cc1cc(NC(=O)CCC(=O)N(Cc2ccco2)C(C(=O)NC2CCCCC2)c2ccccc2)no1 (stereo not given)	-14.8	34.5	-5.1	0.4	-1.5	0.3
COc1cccc2sc(N(CCCN(C)C)C(=O)COc3ccc(Cl)cc3)nc12	0.4	-0.2	-16.8	-0.4	6.2	?
N#Cc1ccc(C(=O)OCC(=O)NC2CCCC2)cc1	14.0	-4.0	-3.0	-0.2	.	3.8
CCOP(=O)(OCC)c1nc(-c2cccc3ccccc23)oc1NCc1ccc(OC)cc1	37.8	15.8	-10.2	0.2	41.9	6.2
O=C(Nc1ccc2oc(=O)ccc2c1)c1cccnc1	-0.4	17.9	-8.0	-0.6	-2.9	-30.3
O=C(Nc1nccs1)c1ccc(COc2c(F)c(F)cc(F)c2F)o1	-2.5	6.0	0.0	-0.1	.	-16.7
N#Cc1c2n(c3c(=O)n(CC(=O)c4ccc([N+](=O)[O-])cc4)cnc13)CCCCC2	6.7	8.7	13.5	1.5	5.4	-1.0
COc1cc(/C=N/Nc2nc3ccccc3[nH]c2=O)ccc1O	5.6	35.3	-8.0	1.7	-8.6	1.0
O=C(c1cc2cc(Cl)ccc2[nH]1)N1CCCCC1	7.6	-0.8	-32.4	0.4	.	-6.8
O=C(c1ccc(F)cc1)N1C2CCC1CC(O)(c1ccc(F)cc1)C2 (stereo not given)	7.0	0.2	-11.6	-0.6	2.9	11.0
CCOC(=O)N1CCN(S(=O)(=O)c2ccc(C(=O)Nc3nnc(CSC)o3)cc2)CC1	?	-4.2	-6.3	-0.7	-10.0	12.7

From PubChem BioAssay
